Screening data (PubChem)
Rango-impB inh – inhibitors of Rango-importin beta complex formation; Rango CFP/YFP FRET sensor + importin beta, 45 min; Potency, µM (highest dose often 92.2 µM), for the others: at the highest dose inhibition of complex formation; actives 0.031% (n = 340,000); AID 540263; Q14974; active = rising FRET ratio curve, often small or poorly fitted; inconclusive = mostly compound fluorescence or quenching in the first reads; inactive = flat curves in all reads;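 further: potency means the concentration at half of the fitted maximal effect; 0% = DMSO wells and 100% = buffer wells lacking importin beta; nearly all actives have a fitted effect of over 15% in size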
Target sequence (Q14974 whole entry, looked up): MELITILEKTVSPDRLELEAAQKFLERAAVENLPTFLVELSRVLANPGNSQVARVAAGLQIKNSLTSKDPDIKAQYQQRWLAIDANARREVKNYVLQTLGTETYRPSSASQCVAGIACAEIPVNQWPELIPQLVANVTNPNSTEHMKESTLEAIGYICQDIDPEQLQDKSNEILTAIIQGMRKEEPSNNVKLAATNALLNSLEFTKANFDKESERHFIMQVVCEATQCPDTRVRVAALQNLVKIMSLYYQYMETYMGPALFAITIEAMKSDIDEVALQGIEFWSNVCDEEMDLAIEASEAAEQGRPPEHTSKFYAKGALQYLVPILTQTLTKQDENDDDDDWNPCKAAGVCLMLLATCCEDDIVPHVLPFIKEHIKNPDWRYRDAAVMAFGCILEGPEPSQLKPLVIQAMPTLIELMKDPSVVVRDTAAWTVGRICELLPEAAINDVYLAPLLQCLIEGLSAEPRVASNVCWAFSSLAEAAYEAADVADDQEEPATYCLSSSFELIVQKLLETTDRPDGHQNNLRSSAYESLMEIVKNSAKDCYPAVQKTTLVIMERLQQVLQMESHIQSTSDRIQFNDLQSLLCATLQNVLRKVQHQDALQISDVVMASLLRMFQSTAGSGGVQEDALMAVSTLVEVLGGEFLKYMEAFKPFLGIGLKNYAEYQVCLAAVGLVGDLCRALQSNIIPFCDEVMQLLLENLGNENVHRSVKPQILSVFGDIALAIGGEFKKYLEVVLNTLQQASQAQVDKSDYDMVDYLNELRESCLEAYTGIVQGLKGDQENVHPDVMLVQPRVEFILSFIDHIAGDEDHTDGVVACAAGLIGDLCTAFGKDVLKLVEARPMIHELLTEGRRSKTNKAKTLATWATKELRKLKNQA
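FRET biosensor Rango (snurportin 1 IBB between N-terminal EYFP and C-terminal Cerulean), 50 nM in PBS/1 mM DTT/0.02% Tween-20/0.1% BSA, preincubated 5 min RT with compound; 0.125 microM importin beta added, 45 min RT, CFP/YFP FRET ratio read.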
Rango release inh – inhibition of RanGTP-driven Rango-importin beta dissociation. O95149+P62826. AID 540253. Biochemical FRET Rango-importin beta, RanGTP-induced dissociation. Potency, µM (series often up to 46.1 µM), for inactives: at the highest dose activity change, negative = inhibition. actives 0.071% (n = 340,000); active means falling FRET ratio curve, often poorly fitted, with flat reads before Ran was added; inconclusive means other falling curves, or compound fluorescence or quenching; inactive means flat or rising ratio curve;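 further: potency means the concentration at half of the fitted maximal effect; % of control where 0% means no effect; nearly all actives have a fitted effect of over 45% in size; -100% = wells without RanGTP and RCC1; the record marks most hits as doubtful in a second field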
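Quantitative HTS using a FRET biosensor: 0.1 uM Rango, 0.25 uM importin beta, 0.6 uM Ran, 2 mM GTP, 0.2 uM RCC1 final, PBS with DTT, Tween-20 and BSA. Post-read taken 45 min after Ran addition.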
miR-21 FLuc – raises the signal of a miR-21 reporter; 340,000 tested, under 10 active; Potency, µM (series often up to 38.3 µM), for inactives: at the highest dose reporter change, positive = more light; HeLa miR-21 FLuc reporter, luciferase, 48 h; active = well fitted rising curve with a large enough effect; inconclusive = small, poorly fitted or top-dose-only effect; inactive = no such curve, though single readings can be large or run the other way;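 further: % of control where 0% means no effect; miR-21 action dims this reporter so a rising signal means less miR-21 action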
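Using DMEM plus 10% FBS, HeLa miR-21-FLuc cells are incubated with test compounds (final up to about 40uM) for 48 hours; firefly luciferase signal is then imaged following reagent-mediated lysis.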
GLA inh pH 4.5 – alpha-galactosidase A (human) inhibition, pH 4.5 | purified enzyme, 4-MU-alpha-Gal fluorescence, pH 4.5 | activity change, negative = inhibition, % at 105 µM | 230,000 tested, under 10 active; inconclusive = small, poorly fitted or top-dose-only inhibition, or a rising curve; inactive = flat fitted curve, though single readings scatter; no compound was filed as active;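 further: 0% = full activity with enzyme and -100% = basal without enzyme; dose as in the result columns while the protocol names 77 µM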
The depositor's hits bear a star; ? = inconclusive; . = not tested or not shown; & = joins results of further samples; [ ] = another dose, or the depositor's remark. Not all compounds are listed (hit frequency here may not be typical).

Rango-impB inh	Rango release inh	miR-21 FLuc	GLA inh pH 4.5	Structure
2.0%	2%	3%	2	COC(=O)c1ccc(NC(=O)c2ccc(CN3CCOCC3)cc2)cc1
-3.9%	-10%	-1%	-1	O=C(CSc1ccc(-c2cccc([N+](=O)[O-])c2)nn1)N1CCCCC1
0.9%	-2%	-3%	7	Cc1cc(=O)n2c(n1)OC(CO)C2 (stereo not given)
2.8%	28%	.	.	CCN(CC(=O)Nc1ccc(NC(C)=O)cc1)C(=O)CCCc1nc2ccccc2c(=O)[nH]1
-1.5%	10%	-2%	.	C[C@]12CCC(=O)CC1CCC1C2CC[C@@]2(C)C1CC[C@@]21CCO1 (stereo not given in full)
-3.0%	14%	-3%	.	Cc1cc(C)c(C(=O)NCCCN2CCOCC2)c(C)c1
6.4%	-5%	-6%	-5	COc1ccccc1CNC(=O)c1cc(=O)c2ccccc2o1
3.8%	1%	1%	.	COCCn1nnnc1CN1CCN(C(=O)c2ccco2)CC1
-2.4%	-16%	-4%	.	O=C(NCCN1CCOCC1)/C(=C\c1ccccc1F)NC(=O)c1ccccc1
2.7%	15%	-1%	.	CC(=O)N1c2ccc(S(=O)(=O)NCCC(=O)Nc3ncccc3C)cc2CC1C (stereo not given)
-1.0%	1%	6%	-3	CCC(C)(C)NC(=O)C(c1ccc(C)cc1)N(Cc1cccs1)C(=O)c1ccc2c(c1)OCCO2 (stereo not given)
4.6%	-3%	-18%	4	CCCC(=O)Nc1cc(-c2nn(C)c(=O)c3ccccc23)ccc1OC
-1.1%	0%	-3%	.	O=S(=O)(c1ccc(Cl)c(C(F)(F)F)c1)N1CCN(CC(O)COc2ccccc2F)CC1 (stereo not given)
-2.4%	-2%	-4%	1	Cc1n[nH]c(=O)nc1NCc1ccccc1
.	.	-1%	0	CCCNC(=O)OC[C@H]1O[C@H](CCO/N=C(\C)CCN2CCc3nc(-c4ccccc4)c(-c4ccccc4)cc3C2)C=C[C@@H]1Oc1ccc(OC)cc1
-0.4%	?	3%	1	CCN1CCN(c2nc(Nc3ccc(NC(C)=O)cc3)nc(Nc3ccc(NC(C)=O)cc3)n2)CC1
1.3%	49%	-55%	5	COc1ccc(/C=N/NC(=O)Cc2cccs2)cc1
4.0%	-5%	11%	5	O=C(CN1CCN(c2ccccc2)CC1)Nc1ccccc1Sc1ccccc1
-1.2%	6%	-3%	-10	CCOC(=O)C(=CNc1ccc(C(F)(F)F)cc1)C(=O)OCC
5.7%	28%	-43%	.	Cc1ccc(C)c(OCc2cc(C(=O)N3CCN(C(=O)c4ccco4)CC3)no2)c1
3.4%	-5%	-2%	1	COc1ccc(Cn2nnnc2C(c2ccc(N(C)C)cc2)N2CCC(C(N)=O)CC2)cc1 (stereo not given)
0.6%	2%	16%	.	COc1ccc(NS(=O)(=O)c2ccc(C)c(C(=O)NC3CCN(Cc4ccccc4)CC3)c2)cc1
-0.9%	-14%	6%	-21	NC(=S)Nc1ccc2cn[nH]c2c1
2.5%	26%	-4%	-6	O=[N+]([O-])c1ccc(Sc2cc[n+]([O-])c3ccccc23)c([N+](=O)[O-])c1
4.6%	17%	-9%	.	Cn1nccc1C(=O)OCC(=O)Nc1ccc(S(N)(=O)=O)cc1
0.0%	-3%	-3%	2	COc1ccccc1C/C(N)=N/OC(=O)COc1ccc(C)cc1
-0.1%	-10%	.	.	COc1ccc(S(=O)(=O)Nc2ccc(-n3cnnn3)cc2)cc1Br
4.1%	21%	-49%	0	CC(C)(C)SCCNC(=O)c1ccccc1
-2.3%	-2%	-17%	2	CCOC(=O)c1csc(NC(=O)CC2CCCC2)n1
1.5%	2%	.	.	O=C(NC1CC1)c1cccc(NC(=O)c2cnn(-c3ccccc3)n2)c1
-2.8%	-3%	-8%	6	O=C(O)CC(NC(=O)C1CCCCC1)c1ccc(OC2CCCC2)cc1 (stereo not given)
4.4%	10%	1%	6	CCN1CCN(C(=S)Nc2ccc3nc4n(c(=O)c3c2)CCCCC4)CC1
0.2%	-5%	0%	0	CCCCCCCNc1cccc(C)c1
3.7%	8%	-4%&2%	.	NC(=O)c1cc(S(=O)(=O)N2CCCCC2)cs1
2.0%	5%	0%	-11	CC1(C)N([O-])c2cc([N+](=O)[O-])ccc2[N+]1=O
-2.0%	-10%	-7%	1	CC(C)N(Cc1cnn(C)c1)Cc1nc(-c2ccc(Cl)cc2)no1
-4.0%	7%	?	-9	COc1ccc(Nc2ccc3c(c2)=NC2(CCCCC2)[N+]=3[O-])cc1
-2.6%	5%	-4%	5	Cc1cc(C)cc(NC(N)=S)c1
4.0%	-8%	-2%	10	N/C(=N\OC(=O)c1cc(-c2ccccc2)nc2ccccc12)c1ccc(Cl)cc1
3.9%	5%	1%	2	Cc1cccnc1NC(=O)c1ccccc1NC(=O)C(C)(C)C
0.2%	1%	.	.	COc1ccc(CNC(=O)CN(c2ccc(C(C)=O)cc2)S(=O)(=O)c2ccc(C)cc2)cc1OC
-1.6%	-10%	0%	.	COc1ccc(OCC(=O)NCCS(=O)(=O)N2CCN(c3ccc(F)cc3)CC2)cc1
0.3%	3%	1%	3[21.1 µM]	O=C(c1cccc(N2C(=O)c3ccccc3C2=O)c1)N1CCCCCC1
-3.8%	1%	-3%	-6	CCCC1(C(=O)OCC)NC(c2cc(OC)c(OC)c(OC)c2)C2C(=O)N(CC)C(=O)C21 (stereo not given)
-4.0%	-2%	14%	-3	CC(C)(C)C(=O)Nc1ccc(-c2cn3ccsc3n2)cc1
-1.5%	-5%	-9%	.	COc1ccc(CCC(C)NCc2ccc(F)cc2)cc1 (stereo not given)
-3.1%	2%	?	.	CCN(CCN(C)C)C(=O)C1CCN(S(=O)(=O)c2c(C)noc2/C=C/c2ccccc2F)CC1
4.2%	9%	-17%	2	CCc1ccc2[nH]c(C(=O)Nc3ccc4c(c3)OCO4)cc2c1
-1.4%	14%	-2%	3	CCN(CC)S(=O)(=O)c1ccc(N/N=C/c2ccc(O)cc2)nc1
1.5%	-10%	-9%	-2	CC(C(=O)Nc1ccccc1Br)c1ccc([N+](=O)[O-])cc1 (stereo not given)
-0.2%	3%	-64%	.	O=c1[nH]c(/C=C/c2ccc(Br)cc2)nc2ccccc12
-0.4%	-4%	-20%	-4	O=C(Nc1ccc2c(c1)OCO2)N1CCN(c2ccccc2)CC1
0.5%	4%	0%	-1	CCCn1c(SCc2cc(=O)[nH]c3ccccc23)nc2c1c(=O)n(C)c(=O)n2C
0.5%	-8%	.	.	O=C(CCNC(=O)c1ccc(Br)cc1)NCCCN1CCCC1=O
-0.9%	-18%	-9%	-17	O=c1[nH]c(=O)n(Cc2ccco2)c2c1C(C(F)(F)F)(C(F)(F)F)N=C(C1CCCCC1)N2
5.6%	2%	-12%	-3	COc1ccc(S(=O)(=O)N2CCCCC2)cc1NC(=O)c1ccc2c(c1)OCO2

Next entries
Rango-impB inh	Rango release inh	miR-21 FLuc	GLA inh pH 4.5	Structure
1.0%	24%	-6%	-3	CN(CC(=O)Nc1ccccn1)S(=O)(=O)c1ccc(Cl)cc1
5.4%	-24%	-3%	4	CCCS(=O)(=O)N1CCN(CC2CC=CCC2)CC1 (stereo not given)
-0.1%	10%	0%	1	O=C(Nc1ccon1)c1cccc(S(=O)(=O)N2CCCCCC2)c1
-1.3%	-7%	.	.	COc1ccc(C(CNC(=O)c2cccc(S(=O)(=O)Nc3ccc(Br)cc3)c2)N(C)C)cc1 (stereo not given)
?	-17%	-34%	14	CCOC(=O)c1cnc2cc3c(cn2c1=O)CCCC3
-1.4%	15%	6%	1	Cc1ccc(S(=O)(=O)N2CCC(C(=O)N3CCC[C@H]3C(=O)NC3CCS(=O)(=O)C3)CC2)cc1 (stereo not given in full)
-0.6%	-3%	-1%	.	COc1ccc(CCNC(=O)CCNC(=O)N2CC(=O)Nc3ccccc32)cc1
-1.6%	-14%	-48%	-14	Cc1ccsc1/C=N/NC(=O)c1ccccn1

Some entries already given, showing only GLA inh pH 4.5 and Rango release inh.
SMILES,GLA inh pH 4.5,Rango release inh
COc1ccc(C(CNC(=O)c2cccc(S(=O)(=O)Nc3ccc(Br)cc3)c2)N(C)C)cc1 (stereo not given),.,-7%
CCOC(=O)c1cnc2cc3c(cn2c1=O)CCCC3,14,-17%
Cc1ccc(S(=O)(=O)N2CCC(C(=O)N3CCC[C@H]3C(=O)NC3CCS(=O)(=O)C3)CC2)cc1 (stereo not given in full),1,15%

(more compounds)
Rango-impB inh	Rango release inh	miR-21 FLuc	GLA inh pH 4.5	Structure
-0.5%	-15%	-7%	-2	Cc1cc(Br)c(OCc2ccc(C(=O)N/N=C3\CC(=O)CC(C)(C)C3)cc2)c(Br)c1
2.1%	4%	-25%	-4	CN(C)c1c([N+](=O)[O-])cc2[nH]c(=O)[nH]c2c1[N+](=O)[O-]
1.7%	-1%	3%	8	CCn1c(C)[n+](Cc2ccccc2)c2ccc(C(=O)OC)cc21
-0.1%	-19%	.	.	Cn1c(N)c(C(=O)COC(=O)c2cc3ccccc3cc2O)c(=O)n(C)c1=O
-2.2%	0%	-4%	3	CCc1cccc(CC)c1NC(=S)NCc1nc2ccccc2[nH]1
-1.2%	1%	-1%	0	O=C(NCSC1=NCCS1)c1ccccc1
-3.2%	-11%	1%	.	O=C(N/N=C\c1cc2c(cc1Cl)OCO2)c1cccnc1
-0.1%	2%	-14%	.	CC1CN(C(=O)CCC(=O)NCCCN2CCC(Cc3ccccc3)CC2)c2cc(Cl)ccc2O1 (stereo not given)

In a second layout: results already given
CCc1cccc(CC)c1NC(=S)NCc1nc2ccccc2[nH]1
- Rango-impB inh = -2.2%
- Rango release inh = 0%
- miR-21 FLuc = -4%
- GLA inh pH 4.5 = 3

O=C(NCSC1=NCCS1)c1ccccc1
- Rango-impB inh = -1.2%
- Rango release inh = 1%
- miR-21 FLuc = -1%
- GLA inh pH 4.5 = 0

Next compounds
Rango-impB inh	Rango release inh	miR-21 FLuc	GLA inh pH 4.5	Structure
?	-14%	0%	5	CCCCSC1(SCCCC)N=C(N)C2(C#N)C(c3ccccc3)NC(C)=C(C)C12C#N (stereo not given)
4.7%	6%	2%	4	Cc1nc(N)c(C#N)c(-c2ccccc2)c1C
-1.5%	9%	-25%	6	COc1cc(/C=N/N2CCN(c3ccccc3OC)CC2)ccc1O
-5.7%	7%	-8%	-10	Cc1sc(NC(=O)c2ccco2)c(C(c2ccccc2)N2CCC(C)CC2)c1C (stereo not given)
-0.1%	-21%	0%	-8	CCCCCCn1nc(C(=O)OCC(=O)c2c(N)n(C)c(=O)n(C)c2=O)c2ccccc2c1=O
-4.2%	-7%	-4%	9	Cc1nc(-n2nnc3ccccc32)c2c3c(sc2n1)CCCC3
-1.5%	0%	-3%	0	CN1CCCN(C2C3CC4CC(C3)CC2C4)CC1 (stereo not given)
0.7%	-1%	.	.	CC1CN(S(=O)(=O)c2cc(C(=O)NCCCN3CCCC3=O)ccc2Cl)CC(C)O1 (stereo not given)
-0.6%	33%	0%	-2	CC(C)Cc1nnc(NC(=O)CCC(=O)Nc2ccc3cn[nH]c3c2)s1
-0.8%	2%	.	.	O=C(NCc1ccccc1CN1CCCCC1)c1ccccc1N1CCCC1=O
?	-1%	0%	.	Cc1ccc(/C=C/S(=O)(=O)NCC(=O)OCC(=O)NCc2ccccc2)cc1
-0.2%	1%	-10%	.	O=C(Nc1cccc(F)c1)c1ccc2c(c1)OCCO2
-1.5%	-6%	-8%	1	O=C(NCCCN1CCN(c2cccc(Cl)c2)CC1)c1ccc(N2CCCC2=O)cc1
-0.5%	-2%	.	.	COc1ccc(-c2coc3cc(OC(C)=O)c(OC)cc3c2=O)cc1
?	-23%	-51%	-2	COCCn1c(C)cc(/C=C2/SC(=O)N(C(C)C(=O)OC)C2=O)c1C (stereo not given)
-2.3%	26%	0%	.	Cn1c(CNC(=O)CNC(=O)c2cccc(Cl)c2)cc(=O)n(C)c1=O
